Screening results: PubChem BioAssay, several laboratories
E coli growth – E. coli growth inhibition | Escherichia coli growth, OD600, 23 h; active compounds read low | OD600 absorbance (concentration not given with the values) | 0.21% of 330,000 active;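 active = OD600 absorbance below the run mean of sample wells minus 3.6 SD, in any replicate, cut at about 0.56 in these data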;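 also: stock transfer was 300 nL into about 60 µL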
ALR inh – inhibitors of human sulfhydryl oxidase ALR. P55789. purified ALR, DTT oxidation, H2O2 HRP-luminol luminescence. inhibition, % (test concentration not listed). 3.8% of 290,000 active;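 active = mean and each replicate at 75% or more; inconclusive = only one of the two met; inactive = neither met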;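 also: stock transfer was 7.5 nL into about 7.5 µL; 0% = neutral wells and 100% = wells with inactivated enzyme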
FGF22 binding – binders of recombinant human FGF22 by thermal shift. 1.5% of 340,000 active. SYPRO orange fluorescence; percent of sucrose octasulfate shift, DMSO zero. calls only at 9.99 µM. Q9HCT0;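 active = melting point raised past a set limit in the mean and every replicate; inconclusive = no clear call; three in four hits are not shown here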
AF4-AF9 inh – MLL-AF4/AF9 protein interaction inhibition; AlphaScreen, biotin-AF4 peptide binding to FLAG-AF9; P42568; inhibition, % at 10 µM; 0.47% of 350,000 active;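 active = every replicate reaching a set inhibition limit, whatever the replicate mean, cut at about 25% in these data; inconclusive = mean inhibition reaches that limit but some replicates miss it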;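 also: 0% = plate neutral control median and 100% = total signal loss; the record names both 10 and 1 µM as test concentration; the first replicate is given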
Target sequence (P42568 whole entry, looked up): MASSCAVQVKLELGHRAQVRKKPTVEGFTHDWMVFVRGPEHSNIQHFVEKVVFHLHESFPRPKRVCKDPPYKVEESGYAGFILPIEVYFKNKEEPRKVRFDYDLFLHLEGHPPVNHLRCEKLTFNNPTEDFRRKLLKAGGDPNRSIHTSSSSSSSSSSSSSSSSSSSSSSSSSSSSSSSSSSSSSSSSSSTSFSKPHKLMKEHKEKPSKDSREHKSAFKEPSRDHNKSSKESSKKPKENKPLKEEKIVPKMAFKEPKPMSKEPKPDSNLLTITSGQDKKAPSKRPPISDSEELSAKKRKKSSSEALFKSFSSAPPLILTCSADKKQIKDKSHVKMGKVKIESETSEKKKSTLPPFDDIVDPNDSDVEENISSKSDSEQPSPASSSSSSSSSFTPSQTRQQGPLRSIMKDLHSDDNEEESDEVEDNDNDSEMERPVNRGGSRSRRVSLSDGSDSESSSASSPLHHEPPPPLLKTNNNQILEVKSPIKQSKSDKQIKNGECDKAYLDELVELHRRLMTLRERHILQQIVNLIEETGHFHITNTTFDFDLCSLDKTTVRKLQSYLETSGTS
HNF4A DNA FP – change in binding of human HNF4 alpha to DNA; HNF4a-FITC DNA binding, fluorescence polarization, 1 h; P41235; activity change, % at 10 µM; 0.3% of 360,000 active; in the data active = activity change above about 30%, passing the limit was not always enough;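 also: controls were the assay level and a saturating level of protein; the project sought stronger binding though the title names inhibitors; some compounds called inactive have numbers as strong as hits; positive values seem to mean higher polarization but the record does not say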
Target sequence (P41235 whole entry, looked up): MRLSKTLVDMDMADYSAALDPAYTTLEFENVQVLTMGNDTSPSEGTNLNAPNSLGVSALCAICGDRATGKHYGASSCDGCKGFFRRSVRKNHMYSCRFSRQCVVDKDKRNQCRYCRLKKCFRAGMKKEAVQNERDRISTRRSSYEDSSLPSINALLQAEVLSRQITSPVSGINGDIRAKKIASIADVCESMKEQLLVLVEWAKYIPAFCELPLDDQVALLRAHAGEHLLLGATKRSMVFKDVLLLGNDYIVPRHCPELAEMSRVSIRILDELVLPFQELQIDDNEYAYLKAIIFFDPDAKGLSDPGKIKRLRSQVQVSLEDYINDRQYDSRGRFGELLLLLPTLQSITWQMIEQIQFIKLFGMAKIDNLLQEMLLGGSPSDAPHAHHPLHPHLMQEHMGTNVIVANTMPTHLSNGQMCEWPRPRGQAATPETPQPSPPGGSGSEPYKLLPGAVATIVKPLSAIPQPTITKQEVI
rRNA inh HTS – inhibitors of bacterial rRNA selective over humanized ribosomes; E. coli WT GFP vs humanized-ribosome RFP mutants, fluorescence, 24 h; active compounds read low; DMSO median 0, no signal -100; GFP signal change (wild-type ribosome), % (test concentration not listed); 1.6% of 350,000 active;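 active = significant combined selectivity score with lowered wild-type GFP, culture density cut under 30%, mutant RFP and density less affected; inactive = any of these conditions unmet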; also: one replicate is shown; some compounds called inactive have numbers as strong as hits
Vif TR-FRET – inhibitors of Vif binding to APOBEC3G peptide, primary screen, biochemical, TR-FRET, GST-Vif 1-94, biotin-A3G peptide, dose response retest (AID 1117319); inhibition, %; hits with a dose series show IC50 in µM; TR-FRET GST-Vif / biotin-A3G peptide binding; higher % means a stronger effect; test concentration not given here; strong numbers were not always called active; 0.57% of 260,000 active;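 active = above the screen mean plus three standard deviations and confirmed in dose response; inconclusive = results disagree or hit not tested in dose response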;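 also: Vif residues 1-94 fused to GST binding biotinylated APOBEC3G peptide 110-148; 0% = full assay without inhibitor and 100% = GST in place of GST-Vif; retest series ran down from 100 µM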
rRNA inh HTS OD600 – second read-out of rRNA inh HTS, no call of its own (marks repeat the call); OD600 change, %; measured here: OD600 growth;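 optical density of the mix in the first replicate; 0 = DMSO median and -100 = no signal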
rRNA inh HTS RFP – second read-out of rRNA inh HTS, no call of its own (marks repeat the call); RFP signal change, %; measured here: RFP humanized mutant strains;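 first replicate; 0 = DMSO median and -100 = no signal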
Active calls of the source: *; i = inactive; ? = inconclusive; . = no result given.

SMILES	E coli growth	ALR inh	FGF22 binding	AF4-AF9 inh	HNF4A DNA FP	rRNA inh HTS	rRNA inh HTS OD600	rRNA inh HTS RFP	Vif TR-FRET
CC(=O)N(C)C[C@@H]1Oc2ncc(C#CC(C)(C)O)cc2C(=O)N([C@@H](C)CO)C[C@@H]1C	.	.	i	-20	.	3	7	-2.1	.
O=C(Nc1ccc([N+](=O)[O-])cc1)Nc1ccc(OC(F)F)c(Cl)c1	0.29*	-6	.	.	-0.1	.	.	.	.
CCc1ccc(-c2cc(C(=O)NN3CCN(C)CC3)c3ccccc3n2)cc1	0.65	14	.	.	-1.8	.	.	.	0%
COc1ccc(NC(=O)Nc2ccccc2SC)cc1OC	0.65	-12	i	-1.9	1.0	-2	0	0.7	?
CCC(C)NC(=O)/C=C/c1cccs1 (centres undefined)	0.68	8	i	6.1	-2.3	5	7	2.5	-1%
Cc1cc(NC(=O)Cn2cnc3c(nnn3-c3ccc(C)c(Cl)c3)c2=O)no1	0.75	-23	i	-1.5	1.7	-3	5	4.3	1%
Cc1cccc(NC(=O)CSCC(=O)N(C)CC(=O)Nc2cccc(F)c2)c1	0.64	68	i	-5.9	6.4	-4	-2	0.6	-6%
C[C@@H]1CN([C@H](C)CO)S(=O)(=O)c2ccc(-c3ccccc3)cc2O[C@@H]1CN(C)Cc1cccc(F)c1	.	.	i	3.4	.	0	-10	4.0	.
O=C(CC1Sc2ccccc2NC1=O)NNC(=O)Nc1ccc(Cl)cc1 (centres undefined)	0.63	1	i	.	-1.2	0	6	-2.3	-2%
COCCN1C=C(C(=O)OC)C(c2ccccc2C(F)(F)F)C(C(=O)OC)=C1	.	3	.	.	-2.7	5	2	0.1	1%
CCCCc1ccc(NC(=O)COc2ccc(C(=O)Nc3ccccc3OC)cc2)cc1	0.72	-5	i	-2.6	.	22	28	-2.6	.
CN(C)C(=O)C[C@@H]1C[C@@H]2c3cc(NC(=O)Nc4ccc(C(F)(F)F)cc4)ccc3O[C@@H]2[C@@H](CO)O1	.	.	i	7.0	.	-3	-41	16	.
O=C(c1cc(C2CC2)nn1-c1ccccc1)N1CCN(c2ncc(C(F)(F)F)cc2Cl)CC1	0.71	-4	i	0.2	0.5	2	2	-3.1	4%
O=C(CN1CCCCCC1)Nc1ccc(Br)cn1	0.71	-2	i	0.3	1.8	-5	0	-1.9	1%
COc1ccccc1N(CC(=O)NCc1ccccc1)C(=O)CCC(=O)Nc1nccs1	0.68	-3	i	0.1	-0.1	0	3	0.9	.
COc1ccc(S(=O)(=O)N(C)C[C@H]2OCCCC[C@H](C)Oc3ccc(NC(=O)CCC(F)(F)F)cc3C(=O)N([C@@H](C)CO)C[C@@H]2C)cc1	.	.	i	1.9	.	-1	-15	0.0	.
CC1CC(C)(C)NC(=S)S1 (centres undefined)	0.7	-3	.	.	-2.6	.	.	.	26%
CCCc1cc(N2CCOCC2)n2ncc(-c3ccccc3)c2n1	0.7	-1	i	-2.1	2.3	-3	-5	-1.2	-5%
O=C(CN1CCN(C(C(=O)Nc2ccc(Cl)cc2C(F)(F)F)c2ccccc2)CC1)NC1CC1 (centres undefined)	0.69	5	i	-4.2	-1.6	0	-10	2.2	-15%
CCN1[C@@H]2c3ccc(-c4cccnc4)c(=O)n3C[C@@H]2[C@@H](CO)[C@@H]1C(=O)NCc1ccccc1	.	.	i	1.7	.	-2	2	-0.9	.
Cc1[nH]c2ccccc2c1/C=N/NS(=O)(=O)c1ccccc1	.	.	i	1.8	2.7	-11	3	8.5	4%
CCc1ccc2c(CN3CCOCC3)cc(=O)oc2c1	0.69	.	i	1.4	-3.5	8	10	-0.2	.
Cc1ccc(C)c(N/N=C2\CCCNC2=O)c1	.	-11	.	.	1.8	.	.	.	25%
Cc1[nH]c(=O)[nH]c(=O)c1S(=O)(=O)N1CCCC(C(=O)N2CCC(Cc3ccccc3)CC2)C1 (centres undefined)	0.69	-1	i	-13	-3.8	0	-16	1.7	1%
COc1cccc(SCC2CSc3nc4ccccc4c(=O)n32)c1 (centres undefined)	0.68	-30	i	-2.4	-0.5	0	-5	0.7	-4%
COc1cccc(NC(=O)CN(C)C(=O)/C=C/c2cc(OC)ccc2OC)c1	0.64	-9	.	.	0.2	.	.	.	-3%
CC(C)CN(C(=O)CCCSc1nc2ccccc2[nH]1)c1c(N)n(Cc2ccccc2)c(=O)[nH]c1=O	0.62	-1	i	-11	-2.6	-2	-6	0.2	4%
CC1CCCCC1NC(=O)Cn1nc(-c2ccccc2)ccc1=O (centres undefined)	0.7	3	i	27*	-0.3	0	2	3.3	0%
CCCSc1nc(N2CCCC2)c2c(c1C#N)CC(C)(C)OC2	0.74	-10	.	.	1.2	.	.	.	24%
COc1ccc(NC(=O)N(C)C[C@H]2Oc3ccc(NS(=O)(=O)c4ccc(F)cc4)cc3CC(=O)N([C@@H](C)CO)C[C@H]2C)cc1	.	.	i	-0.6	.	0	8	-0.5	.

Some of these compounds in order of the Vif TR-FRET value, descending:
SMILES	ALR inh	FGF22 binding	AF4-AF9 inh	HNF4A DNA FP	rRNA inh HTS	rRNA inh HTS OD600	rRNA inh HTS RFP	Vif TR-FRET
CC1CCCCC1NC(=O)Cn1nc(-c2ccccc2)ccc1=O (centres undefined)	3	i	27*	-0.3	0	2	3.3	0%
COc1cccc(NC(=O)CN(C)C(=O)/C=C/c2cc(OC)ccc2OC)c1	-9	.	.	0.2	.	.	.	-3%
CCCc1cc(N2CCOCC2)n2ncc(-c3ccccc3)c2n1	-1	i	-2.1	2.3	-3	-5	-1.2	-5%

More structures.
SMILES	E coli growth	ALR inh	FGF22 binding	AF4-AF9 inh	HNF4A DNA FP	rRNA inh HTS	rRNA inh HTS OD600	rRNA inh HTS RFP	Vif TR-FRET
c1ccc(Cn2cc(CNc3ccccc3)nn2)cc1	0.69	-6	i	-1.8	0.7	4	-3	-4.9	.
Cc1ccc(CN2CCCNC2=O)cc1	0.73	-10	.	.	2.9	.	.	.	16%
Nc1c(C(=O)CSc2nnc(-c3ccccc3)o2)c(=O)[nH]c(=O)n1C1CC1	0.66	-1	i	-2.0	0.7	12	11	-5.5	-13%
COc1ccccc1N(Cc1cc(=O)[nH]c2ccccc12)C(=O)c1ccccc1	0.71	-4	i	11	0.9	-15	-6	0.5	-7%
CCn1cnc2c(cnn2-c2ccccc2)c1=O	0.66	-3	.	.	-2.8	.	.	.	?
COc1ccc([N+](=O)[O-])cc1N(CC(=O)NCc1ccco1)S(C)(=O)=O	0.72	-1	i	-15	2.3	-4	-4	-0.6	-2%
C[C@@H]1CN([C@H](C)CO)C(=O)c2cc(C3=CCCC3)cnc2O[C@H]1CN(C)Cc1cccnc1	.	.	i	-3.6	.	6	7	2.0	.
CC1(C)Cc2c(cnn2-c2ccccc2)C(NC(=O)CCc2ccncc2)C1 (centres undefined)	0.71	8	i	-1.1	0.0	2	3	4.5	-10%
C[C@H](CO)N1C[C@H](C)[C@@H](CN(C)Cc2ccc(F)cc2)Oc2ncc(C#Cc3cccnc3)cc2C1=O	.	.	i	0.2	.	2	1	1.6	.
COc1ccc(CC(=O)OCC(=O)NC2CC2)cc1	0.68	-7	i	0.9	-3.0	14	14	-0.6	-6%
N#CCCNc1c(Cl)cc(Cl)cc1C(=O)O	0.67	-19	.	.	-1.5	.	.	.	.
CC1CCc2sc(C(=O)OCC(=O)NC(N)=O)cc2C1 (centres undefined)	0.7	-2	i	-5.9	-0.9	6	3	0.0	8%
CC1CCCN(CCCNC(=O)C2CCN(S(=O)(=O)N3CCC4(CC3)OCCO4)CC2)C1 (centres undefined)	0.71	-2	i	3.8	0.4	10	9	-2.8	.
COc1ccc(S(=O)(=O)N(C)C[C@H]2Oc3ccc(N(C)C)cc3C(=O)N([C@H](C)CO)C[C@@H]2C)cc1	.	.	i	2.0	.	-7	-6	5.3	.
Cn1ccsc1=NC(=O)c1cccc(C#N)c1	0.71	2	i	-5.0	5.8	-6	3	-3.3	-2%
CCC1(O)c2ccccc2-c2ncccc21 (centres undefined)	0.71	-9	.	.	0.9	.	.	.	7%
COc1ccc(S(=O)(=O)Nc2ccc3c(c2)C(=O)N([C@@H](C)CO)C[C@@H](C)[C@H](CN(C)Cc2ccc(C(=O)O)cc2)OCCCC[C@@H](C)O3)cc1	.	.	i	-3.6	.	1	0	2.0	.
O=C(COC(=O)/C=C/c1ccc([N+](=O)[O-])cc1)NCc1ccc2c(c1)OCO2	0.7	-10	i	-0.1	-0.1	5	4	-0.5	9%
CC(C)(C)Nc1c([N+](=O)[O-])c(=O)sc2ccccc12	0.68	30	i	-4.2	1.4	11	8	3.6	.
COCC(=O)N1[C@H](C#N)[C@H](c2ccc(C#Cc3ccccc3F)cc2)[C@@H]1CO	.	.	i	0.1	.	-1	-14	4.4	.
C=CCNc1nnc(Cc2ccc(C(C)C)cc2)c(=O)[nH]1	.	-11	.	.	3.5	.	.	.	-4%
O=C1CSC(=Nc2ccc(O)cc2)N1	0.67	.	i	-0.1	-1.1	11	16	1.0	-2%
CC(=O)Nc1ccccc1C(=O)C(=O)Nc1ccc(F)c(Cl)c1	0.7	0	i	-3.4	-3.4	-1	5	-5.5	-5%
CCCc1cc(C(=O)NCc2cccnc2)no1	0.67	-13	i	-13	-2.0	5	8	-2.0	1%
O=C(CCCN1C(=O)c2cccc3cccc(c23)C1=O)OCC(=O)N1CCCCC1	.	.	i	1.2	-0.8	.	.	.	2%
Cc1cccc(NC(=O)c2nc[nH]c2C(=O)Nc2cccc(C)c2)c1	0.72	-2	i	-0.9	3.3	22	30	5.8	14%
CC(C)c1ccc2oc(=O)cc(CN3CCN(c4ccccc4)CC3)c2c1	0.74	1	.	.	-4.9	.	.	.	5%
CCOC(=O)c1ccc(NC(=O)C(=O)NCc2ccccn2)cc1	0.67	-2	i	1.4	1.8	5	-6	-3.2	5%
Cc1ccc(NC(=O)CCN2CCC(Cc3ccccc3)CC2)cc1	0.66	-3	i	0.8	0.5	7	-6	3.4	-10%
CCCCS/C(=C(/C#N)C(N)=O)c1cc2c([nH]1)CCCC2	0.65	8	.	.	2.3	.	.	.	?
COc1cccc(CN2CCN(C(=O)c3ccco3)CC2)c1OC	0.72	-10	.	.	0.9	.	.	.	-2%
O=C(Cn1cnc2ccccc21)N1CCc2ccccc21	0.63	-4	i	-4.0	2.9	-14	-11	1.1	-4%
C[C@@H]1CN([C@@H](C)CO)C(=O)Cc2cc(NC(=O)Cc3ccccc3)ccc2O[C@@H]1CN(C)CC1CCCCC1	.	.	i	-0.9	.	2	1	1.0	.
Cc1cccc(NC(=O)Cn2nnc(-c3ccc(CN4CCCC4)cc3)n2)c1C	0.71	-2	.	.	-1.1	.	.	.	-6%
Cc1ccc(S(=O)(=O)Nc2ccc3c(c2)C(=O)N([C@@H](C)CO)C[C@H](C)[C@H](CN(C)C(=O)Nc2ccccc2)OCCCC[C@@H](C)O3)cc1	.	.	i	-0.7	.	0	5	-1.2	.
O=C1NCCC/C1=N/Nc1cc(F)ccc1F	.	.	i	1.8	-0.5	.	.	.	1%
CN(Cc1ccccc1)C(=O)C1CCN(S(=O)(=O)c2ccc(-n3cnnn3)cc2)CC1	0.7	.	i	-2.4	1.6	3	6	0.6	-1%
O=C(CN1C(=O)NC2(CCCC2)C1=O)N1CCN(S(=O)(=O)c2ccccc2)CC1	0.67	-3	i	-1.0	2.0	16	19	3.8	.
N#CC(C(=O)NCCc1ccccc1)c1nc2ccccc2nc1N1CCOCC1 (centres undefined)	0.71	-6	.	.	49	.	.	.	-2%

These rows are one share of the data; the hit share may differ from the screen's.
